D2 ag: human D2 receptor agonism in beta-arrestin assay; DiscoveRx PathHunter D2 beta-arrestin, luminescence, 90 min; 100% = 57 uM dopamine signal; activation, % (test concentration not listed); actives 0.084% (n = 360,000); in the data active = activation above about 40%; inconclusive = about 15% to 40%; inactive = below about 15%; note: compound concentration not given in the record; the text of the record calls up to 30% inactive
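Agonist mode: compounds alone added to overnight-plated D2 PathHunter cells for 90 min at 37 C, with 57 uM final dopamine (EC100) defining full response. Beta-arrestin recruitment detected by chemiluminescent reagent, read after 1 h at ambient temperature.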
TRPML1 ag: human mucolipin-1 channel agonism; AID 624414; actives 0.12% (n = 410,000); Q9GZU1; activation, % (no concentration beside the values); TRPML1-expressing cells, Ca2+ dye fluorescence, FDSS; host cell line not named in the record; reference of the full effect not given here; in the data active = activation above about 50%; inconclusive = about 30% to 50%; inactive = below about 30%; note: 0% is about no effect; the text of the record puts the active cut at 80%
Target sequence (Q9GZU1 whole entry, looked up): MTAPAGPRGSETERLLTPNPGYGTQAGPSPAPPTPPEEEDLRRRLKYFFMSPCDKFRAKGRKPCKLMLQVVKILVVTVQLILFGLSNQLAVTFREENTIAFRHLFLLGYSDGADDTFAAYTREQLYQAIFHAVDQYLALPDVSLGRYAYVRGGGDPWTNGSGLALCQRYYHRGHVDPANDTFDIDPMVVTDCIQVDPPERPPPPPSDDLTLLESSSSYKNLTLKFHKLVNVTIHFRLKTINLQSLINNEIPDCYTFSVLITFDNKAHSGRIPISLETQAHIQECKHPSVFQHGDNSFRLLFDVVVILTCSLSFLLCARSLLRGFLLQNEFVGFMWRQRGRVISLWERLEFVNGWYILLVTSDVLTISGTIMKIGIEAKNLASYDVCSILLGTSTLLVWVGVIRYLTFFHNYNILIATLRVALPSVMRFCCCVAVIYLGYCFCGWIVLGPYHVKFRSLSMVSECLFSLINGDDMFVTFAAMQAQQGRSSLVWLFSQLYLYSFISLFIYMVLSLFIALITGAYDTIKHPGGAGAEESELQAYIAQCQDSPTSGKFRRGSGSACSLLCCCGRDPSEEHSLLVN
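TRPML1-DL cells, Tet-induced overnight (~16 h, 37 degrees C), loaded 45-90 min at room temperature with Ca8 no-wash calcium dye plus quencher. FDSS fluorescence: 10 s baseline, compound pin-transfer, 110 s agonist read, then EC80 54-4 (4uM final) and 110 s antagonist read.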
D2 PAM: positive allosteric modulators of human D2 dopamine receptor; P14416; DiscoveRx D2 beta-arrestin cells, luminescence, 90 min; 100% = 57 uM dopamine signal; potentiation, % (test concentration not listed); actives 0.23% (n = 360,000); AID 624464; active = potentiation of 50% or more; inconclusive = 30% to 50%; inactive = 30% or less;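 note: compound concentration not given in the record; tested on top of an EC20 dose of dopamine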
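PathHunter D2 cells, attached overnight at 37 deg C, received compound in DMSO plus dopamine at EC20 (50 nM final) for 90 min at 37 deg C. Beta-arrestin recruitment was read as luminescence after 1 h with detection reagent at ambient temperature.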
Six1-Eya2 blk: Six1/Eya2 interaction inhibition; Q15475+O00167; AlphaScreen GST-Six1/His-Eya2 binding, biochemical; hits give low values; control for the full effect not named in the record; activity change, % (test concentration not listed); actives 0.56% (n = 360,000); AID 651725; in the data active = activity change below about -65%; inconclusive = about -30% to -65%; inactive = above about -30%; note: % is set by controls: 0 for no effect and ±100 for the full control effect; compound concentration not given in the record
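AlphaScreen with GST-Six1 and His-Eya2 (5X mix: 250 nM and 500 nM), glutathione donor and nickel acceptor beads; buffer 50 mM Tris pH 8.0, 300 mM NaCl, 1 mM TCEP; 1 h at 37 C in the dark.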
PINK1 modulator: changes PINK1 expression; PINK1 immunofluorescence, high-content cytometry, 24 h; Potency, µM (highest dose often 76.6 µM), for the others: at the highest dose activation (PINK1 increase), hits mostly activators; AID 624263; actives 0.2% (n = 410,000); active = well fitted activation curve with a large enough effect; inconclusive = small, poorly fitted or top-dose-only effect; inactive = flat fitted curve, though single readings scatter; cell line not stated here;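 note: potency is the fitted concentration of half-maximal effect; % of control where 0% means no effect; nearly all actives have a fitted effect of over 65% in size; a mitochondrial uncoupler was the plate control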
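Compound titrations (5 concentrations, 24 h) on a stable cell line; DMSO and CCCP controls. Endpoint: fixed-cell PINK1 immunofluorescence with mitochondrial, cell and nuclear markers, scanned by microplate cytometer.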
CtBP-E1A inh: blocks the CtBP interaction with E1A; AlphaScreen GST-E1A/His-CtBP binding, 1536-well; hits give low values; control for the full effect not named in the record; activity change, % (concentration not given with the values); actives 0.49% (n = 340,000); in the data active means activity change below about -65%; inconclusive means about -30% to -65%; inactive means above about -30%; note: % is set by controls: 0 for no effect and ±100 for the full control effect
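AlphaScreen with 125 nM GST-E1A and 125 nM His-CtBP (5X stocks) in Tris pH 8.0, 300 mM NaCl, BSA, Tween 20, TCEP. Compounds preincubated 2 h at 37 deg C, then glutathione donor/nickel acceptor beads added for 1 h at 37 deg C in dark.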
* hit, by the source's call; . = no result given; [ ] = another dose, or the depositor's remark.

Field names: A = D2 ag; B = TRPML1 ag; C = D2 PAM; D = Six1-Eya2 blk; E = PINK1 modulator; F = CtBP-E1A inh
1	CCOC(=O)C1=c2s/c(=C\c3cccnc3)c(=O)n2C(N)=C(C(=O)OC)C1c1cccnc1 (stereo not drawn)
  A: -2.5	B: -0.1	C: -19	D: -1	E: 21%	F: -1

2	Cc1cc(N2CCN(c3ccccc3Cl)CC2)n2cc(-c3ccccc3)nc2n1
  A: -4.9	B: 1.8	C: -22	D: -21	E: 18%	F: -22

3	CC(NC(=O)Cn1cnc2c1c(=O)n(C)c(=O)n2C)c1ccccc1 (stereo not drawn)
  A: 0.4	B: 0.8	C: -14	D: 3	E: 0.1%	F: 9

4	COc1ccc(N2C(=O)CCC(C(=O)O)C2c2ccc(OC)c(OC)c2)cc1 (stereo not drawn)
  A: -2.1	B: -0.5	C: -9	D: -1	E: -1.7%	F: 2

5	CCOc1cc(C#N)c(NC(=O)c2ccnn2C)cc1OCC
  A: -3.2	B: -0.1	C: -1	D: 0	E: 6.8%	F: 6

6	O=C(CN1CCOCC1)N/N=C/c1cccc2ccccc12
  A: -3.2	B: -0.6	C: -15	D: 1	E: 0.4%	F: 1

7	O=C(CCC1CCCC1)NNC(=O)c1cc2ccccc2cc1O
  A: -1.2	B: 0.0	C: -4	D: -5	E: 2.5%	F: -1

8	CCOC(=O)C1CCN(Cc2cn(C)nc2-c2ccc(Oc3ccccc3)cc2)CC1
  A: 5.5	B: -0.3	C: -5	D: -2	E: 1.5%	F: 2

9	O=C(CSc1nnc(NC(=O)c2cccc(F)c2)s1)NC1CC1
  A: -1.7	B: 0.1	C: -1	D: 6	E: 0.0%	F: -2

10	O=C(NC1CC(=O)N(c2cccc(F)c2)C1)C(=O)c1c[nH]c2ccccc12 (stereo not drawn)
  A: -0.9	B: 0.4	C: -22	D: 0	E: 18%	F: 5

Reformatted tab-delimited: 2 of the compounds above
item	Molecule	D2 ag	TRPML1 ag	D2 PAM	Six1-Eya2 blk	PINK1 modulator	CtBP-E1A inh
3	CC(NC(=O)Cn1cnc2c1c(=O)n(C)c(=O)n2C)c1ccccc1 (stereo not drawn)	0.4	0.8	-14	3	0.1%	9
4	COc1ccc(N2C(=O)CCC(C(=O)O)C2c2ccc(OC)c(OC)c2)cc1 (stereo not drawn)	-2.1	-0.5	-9	-1	-1.7%	2

The list continues:
Field names: A = D2 ag; B = TRPML1 ag; C = D2 PAM; D = Six1-Eya2 blk; E = PINK1 modulator; F = CtBP-E1A inh
11	COc1ccccc1CNC(=O)c1ccc(OC(C)C)cc1
  A: 5.7	B: -0.4	C: -4	D: -6	E: -1.8%	F: -23

12	Cc1ccc(S(=O)(=O)N2C[C@H]3[C@H]4C(=O)N(c5ccccc5)C(=O)[C@H]4C[C@H](OC(=O)NCc4ccco4)[C@@]3(O)C2)cc1
  A: -2.7	B: 0.3	C: 0	D: -15	E: 2.1%	F: -2

13	CCn1c(SCc2nc(-c3ccccc3)no2)nnc1-c1ccco1
  A: -0.4	B: -0.4	C: 10	D: -1	E: 0.4%	F: 0

14	CC1(C)CN(Cc2ccccc2)C(=O)[C@H]1CC(=O)Nc1ccccc1
  A: 1.1	B: -0.8	C: 2	D: -1	E: 0.1%	F: -1

15	O=C(O)c1ccc(N2C(=O)Nc3ccccc3N2O)cc1
  A: -2.5	B: -0.3	C: -7	D: -6	E: 0.3%	F: 7

16	Cc1cc2n(n1)C(c1ccccc1Cl)Nc1ccccc1-2 (stereo not drawn)
  A: -2.1	B: 1.0	C: -9	D: -3	E: 2.9%[38.3 µM]	F: 1

17	CC(C)Cn1c(SCc2nnc(-c3cccs3)o2)nc(O)cc1=O
  A: -1.0	B: 1.4	C: -5	D: -1	E: -1.9%	F: -2

18	CC(C)CC(=O)Nc1ccnn1C1CCN(C(=O)c2ccc(Cl)cc2F)CC1
  A: 2.0	B: -0.1	C: -8	D: 1	E: -0.2%	F: -1

19	CN1CCN(c2cc3c(c4c2[nH]c2ccccc24)C(=O)CC(C)(C)C3)CC1
  A: -8.0	B: 0.7	C: 0	D: 1	E: 1.2%	F: -8

20	O=C(Nc1nc2ccc(Cl)cc2s1)[C@@H]1CCCN1C(=O)c1cccs1
  A: -2.0	B: 0.0	C: -21	D: -8	E: -1.1%	F: -6

21	CCCN1CNC(=S)N(c2cc(C)ccc2C)C1
  A: -1.5	B: -0.1	C: -10	D: 1	E: -1.4%	F: -8

22	O=C(CCC1CCCN(C(=O)c2ccc3c(c2)OCCO3)C1)NCc1ccccc1F (stereo not drawn)
  A: -1.1	B: -0.3	C: -9	D: -1	E: 2.4%	F: 0

23	Nc1ccc(CN2CCCCCC2)cc1
  A: -2.2	B: 0.0	C: -9	D: -1	E: 1.8%	F: -5

24	COc1ccccc1NC(CC(=O)c1ccccc1)C(=O)OCC(=O)c1ccc(C)c(C)c1 (stereo not drawn)
  A: -3.1	B: 0.5	C: -11	D: -26	E: 18%	F: -2

25	Cc1ccc(N2CCN(Cc3ccccc3)CC2=O)c(C)c1
  A: -2.3	B: 1.1	C: -4	D: 0	E: 0.6%	F: .

26	Nc1nc(SCc2ccc(F)cc2)ns1
  A: -6.3	B: 1.5	C: -2	D: 15	E: 1.3%	F: 1

27	COc1ccc(-c2nc3c(c4nnc(SC(C)C(=O)Nc5ccc(C)cc5)n24)COC(C)(C)C3)cc1 (stereo not drawn)
  A: -3.8	B: -0.7	C: -5	D: 1	E: 4.5%	F: 0

28	CC(=O)Nc1cc(-n2cnnn2)ccc1C
  A: -3.5	B: 1.2	C: -4	D: -13	E: 1.7%	F: -1

29	O=C(CSc1nccn1Cc1ccco1)Nc1ccccc1C(F)(F)F
  A: 1.6	B: 0.6	C: -2	D: 0	E: -0.5%	F: 1

30	CCS(=O)(=O)c1ncc(Cl)c(C(=O)Nc2ccc(S(=O)(=O)N3CCC(C)CC3)cc2)n1
  A: -7.2	B: 4.8	C: -9	D: 20	E: -2.2%	F: -3

By substructure, the compounds so far containing a halogen
Field names: A = D2 ag; B = TRPML1 ag; C = D2 PAM; D = Six1-Eya2 blk; E = PINK1 modulator; F = CtBP-E1A inh
2	Cc1cc(N2CCN(c3ccccc3Cl)CC2)n2cc(-c3ccccc3)nc2n1
  A: -4.9	B: 1.8	C: -22	D: -21	E: 18%	F: -22

9	O=C(CSc1nnc(NC(=O)c2cccc(F)c2)s1)NC1CC1
  A: -1.7	B: 0.1	C: -1	D: 6	E: 0.0%	F: -2

10	O=C(NC1CC(=O)N(c2cccc(F)c2)C1)C(=O)c1c[nH]c2ccccc12 (stereo not drawn)
  A: -0.9	B: 0.4	C: -22	D: 0	E: 18%	F: 5

16	Cc1cc2n(n1)C(c1ccccc1Cl)Nc1ccccc1-2 (stereo not drawn)
  A: -2.1	B: 1.0	C: -9	D: -3	E: 2.9%[38.3 µM]	F: 1

18	CC(C)CC(=O)Nc1ccnn1C1CCN(C(=O)c2ccc(Cl)cc2F)CC1
  A: 2.0	B: -0.1	C: -8	D: 1	E: -0.2%	F: -1

20	O=C(Nc1nc2ccc(Cl)cc2s1)[C@@H]1CCCN1C(=O)c1cccs1
  A: -2.0	B: 0.0	C: -21	D: -8	E: -1.1%	F: -6

22	O=C(CCC1CCCN(C(=O)c2ccc3c(c2)OCCO3)C1)NCc1ccccc1F (stereo not drawn)
  A: -1.1	B: -0.3	C: -9	D: -1	E: 2.4%	F: 0

26	Nc1nc(SCc2ccc(F)cc2)ns1
  A: -6.3	B: 1.5	C: -2	D: 15	E: 1.3%	F: 1

29	O=C(CSc1nccn1Cc1ccco1)Nc1ccccc1C(F)(F)F
  A: 1.6	B: 0.6	C: -2	D: 0	E: -0.5%	F: 1

30	CCS(=O)(=O)c1ncc(Cl)c(C(=O)Nc2ccc(S(=O)(=O)N3CCC(C)CC3)cc2)n1
  A: -7.2	B: 4.8	C: -9	D: 20	E: -2.2%	F: -3
